Rango dissoc inh: prevents RanGTP from dissociating the Rango-importin beta complex. Biochemical FRET Rango-importin beta, RanGTP-induced dissociation. Potency, µM (titrated, usually from 46.1 µM), inactives show at the top dose activity change, negative = inhibition. actives 0.071% (n = 340,000). AID 540253; active means falling FRET ratio curve, often poorly fitted, with flat reads before Ran was added; inconclusive means other falling curves, or compound fluorescence or quenching; inactive means flat or rising ratio curve;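 note: potency is the fitted concentration of half-maximal effect; % of control where 0% means no effect; nearly all actives have a fitted effect of over 45% in size; -100% = wells without RanGTP and RCC1; the record marks most hits as doubtful in a second field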
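Compounds sat 5 min at room temperature with 0.1 uM Rango biosensor plus 0.25 uM importin beta, then FRET pre-read. RanGTP-RCC1 (0.6 uM Ran, 2mM GTP, 0.2 uM RCC1) added for 45 min, and the CFP/YFP post-read measured blocked complex dissociation.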
miR-21 FLuc: raises the signal of a miR-21 reporter. 340,000 tested, under 10 active. Potency, µM (highest dose often 38.3 µM), for inactives: at the highest dose reporter change, positive = more light. HeLa miR-21 FLuc reporter, luciferase, 48 h. AID 2288; active = well fitted rising curve with a large enough effect; inconclusive = small, poorly fitted or top-dose-only effect; inactive = no such curve, though single readings can be large or run the other way;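 note: % of control where 0% means no effect; miR-21 action dims this reporter so a rising signal means less miR-21 action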
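Luminescence from a firefly luciferase reporter carrying a miR-21 binding site downstream, stably expressed under a CMV promoter in HeLa cells that make miR-21 endogenously, reports miRNA modulation after 48 h compound exposure up to approximately 40uM final.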
Rango complex inh: prevents formation of the Rango-importin beta complex; Rango CFP/YFP FRET sensor + importin beta, 45 min; Potency, µM (highest dose often 92.2 µM), for the others: top-dose inhibition of complex formation; actives 0.031% (n = 340,000); AID 540263; active = rising FRET ratio curve, often small or poorly fitted; inconclusive = mostly compound fluorescence or quenching in the first reads; inactive = flat curves in all reads;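 note: potency is the fitted concentration of half-maximal effect; 0% = DMSO wells and 100% = buffer wells lacking importin beta; nearly all actives have a fitted effect of over 15% in size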
Target sequence (Q14974 whole entry, looked up): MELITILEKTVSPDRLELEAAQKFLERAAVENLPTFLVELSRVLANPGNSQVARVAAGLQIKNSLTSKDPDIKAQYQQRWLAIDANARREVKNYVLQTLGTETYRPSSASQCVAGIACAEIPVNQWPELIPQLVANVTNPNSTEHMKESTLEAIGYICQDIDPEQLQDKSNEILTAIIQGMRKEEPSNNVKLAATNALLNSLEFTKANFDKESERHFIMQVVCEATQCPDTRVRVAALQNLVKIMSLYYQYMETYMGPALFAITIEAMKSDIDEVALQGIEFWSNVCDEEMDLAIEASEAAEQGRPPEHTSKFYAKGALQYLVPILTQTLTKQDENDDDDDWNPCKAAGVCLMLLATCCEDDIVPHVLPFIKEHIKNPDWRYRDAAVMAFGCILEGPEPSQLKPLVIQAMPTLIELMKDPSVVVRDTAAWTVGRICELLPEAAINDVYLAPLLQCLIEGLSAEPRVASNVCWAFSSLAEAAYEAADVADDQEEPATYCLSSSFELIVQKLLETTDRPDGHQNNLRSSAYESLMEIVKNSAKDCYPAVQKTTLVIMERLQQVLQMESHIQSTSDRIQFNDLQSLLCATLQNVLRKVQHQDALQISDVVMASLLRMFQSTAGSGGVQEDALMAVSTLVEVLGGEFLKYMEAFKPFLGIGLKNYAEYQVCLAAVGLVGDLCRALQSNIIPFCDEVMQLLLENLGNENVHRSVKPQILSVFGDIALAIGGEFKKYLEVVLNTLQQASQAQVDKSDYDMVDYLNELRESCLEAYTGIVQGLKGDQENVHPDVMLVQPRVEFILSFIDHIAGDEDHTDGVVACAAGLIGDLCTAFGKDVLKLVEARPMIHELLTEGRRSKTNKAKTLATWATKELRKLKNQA
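FRET biosensor Rango (snurportin 1 IBB between N-terminal EYFP and C-terminal Cerulean), 50 nM in PBS/1 mM DTT/0.02% Tween-20/0.1% BSA, preincubated 5 min RT with compound; 0.125 microM importin beta added, 45 min RT, CFP/YFP FRET ratio read.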
GLA inh pH 4.5: alpha-galactosidase A (human) inhibition, pH 4.5. P06280. purified enzyme, 4-MU-alpha-Gal fluorescence, pH 4.5. activity change, negative = inhibition, % at 105 µM. 230,000 tested, under 10 active; inconclusive = small, poorly fitted or top-dose-only inhibition, or a rising curve; inactive = flat fitted curve, though single readings scatter; no compound was filed as active;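 note: 0% = full activity with enzyme and -100% = basal without enzyme; dose as in the result columns while the protocol names 77 µM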
Active calls of the source: *; ? = inconclusive; · = no result given; & = joins results of further samples; [ ] = dose if it differs, or a comment.

# | molecule | miR-21 FLuc | GLA inh pH 4.5 | Rango dissoc inh | Rango complex inh
1 | CCCNC(=O)CC1C(=O)N(Cc2ccccc2)C(C)c2nc3ccccc3n21 (stereo not drawn) | -1% | 7 | -14% | -1.4%
2 | CCN(CC)C(=O)Cn1cnc2ccccc2c1=O | ? | -3 | 2% | -1.7%
3 | CC(C)N1CCc2c(sc(NC(=O)c3ccc(S(=O)(=O)N4CCOCC4)cc3)c2C#N)C1 | -3% | -14 | ? | ?
4 | Cc1cc2occ(CC(=O)N(C)CC(=O)Nc3cccc(F)c3)c2cc1C | -2% | · | 6% | -0.6%
5 | Cc1ccc(C(=O)Nc2ccc(N3CCN(C(=O)c4cccs4)CC3)cc2)c(Cl)c1 | ? | · | -2% | -1.7%
6 | O=C(NC(=O)c1ccc(Cl)cc1)Nc1cc(N2CCCCC2)ncn1 | · | · | -17% | -0.9%
7 | COCCNC(=S)NC1CC2CCC(C1)N2Cc1ccccc1 (stereo not drawn) | 0% | 13 | 1% | 5.9%
8 | COc1ccc(NC(=O)CSc2nnc(Cn3cnc([N+](=O)[O-])n3)n2C)cc1 | 1% | 4 | -1% | 1.0%
9 | CCOC(=O)C1=C(C)N(CCCC(=O)O)C(=O)NC1c1ccccc1Cl (stereo not drawn) | · | · | 12% | -4.7%
10 | O=C(Nc1nc(-c2ccccc2)ns1)c1cccs1 | -7% | -1 | 4% | 0.0%
11 | CC(=O)N(Cc1cc2c(C)cc(C)cc2[nH]c1=O)C1CCCCC1 | -3% | 8 | -11% | 0.5%
12 | COc1ccccc1NC(=O)CSc1n[nH]c(-c2cccnc2)n1 | 6% | · | -22% | -0.4%
13 | COC(=O)Oc1c(Br)c(=O)oc2ccccc12 | · | · | 2% | -0.4%
14 | O=[N+]([O-])c1ccc(-c2nnc3cccc(Cl)n23)cc1 | -15% | · | 3% | 0.9%
15 | COC(=O)C(NC(=O)C(C)Oc1ccccc1)C(C)C (stereo not drawn) | -2% | -3 | 10% | 2.2%
16 | CC(=O)NC(c1ccco1)c1cc(Cl)c2ccccc2c1O (stereo not drawn) | · | · | ? | ?
17 | Cc1ccc(O)c(NC(=O)c2ccco2)c1 | -37% | -9 | -10% | 1.2%
18 | Cn1c(SCC(=O)NCC2CCCO2)nc2c(c1=O)SCC2 (stereo not drawn) | 3% | · | 3% | -0.5%
19 | CCN1CCN(C(=O)c2cc3c(=O)n4ccccc4nc3s2)CC1 | -20% | · | 0% | -5.1%
20 | Nc1cccc(NC(=O)c2cccs2)c1 | -19% | 1 | 6% | -3.3%

The results go on:
# | molecule | miR-21 FLuc | GLA inh pH 4.5 | Rango dissoc inh | Rango complex inh
21 | CC/C(=N/NC(=O)c1ccc(Br)cc1)c1ccc(OCCN2CCOCC2)cc1 | -20% | -4 | 8% | -10%
22 | CSc1ccc(CNCc2ccc3c(c2)OCO3)cc1 | -9% | · | 5% | -1.9%
23 | C(=N\Nc1nc(-c2cccnc2)nc2ccccc12)/c1ccccc1 | 5% | -3 | -21% | ?
24 | COc1cccc(N2C(=NC(=O)c3ccccc3)SC3CS(=O)(=O)CC32)c1 (stereo not drawn) | -4% | · | 6% | -0.4%
25 | COc1ccccc1CNC(=O)CN(C)CC(=O)Nc1cccc(F)c1 | 3% | 11 | 2% | 1.7%
26 | NNC(=O)/C(=C/c1cccs1)NC(=O)c1ccccc1Cl | 18% | 0 | 31% | -1.0%
27 | O=C(NN=C1CCCCCC1)c1cc(-c2ccccc2)nc2ccccc12 | -12% | 7 | -10% | 0.3%
28 | CCc1nnc(NC(=O)CSc2nnc(COc3ccccc3)n2-c2ccc(C)cc2)s1 | -4% | 7 | 1% | -0.3%
29 | O=C(Nc1ccnc(-c2cccnc2)n1)c1cccc(Cl)c1Cl | -4% | -6 | -12% | -0.8%
30 | CCN(CC)N=Nc1ccc(S(=O)(=O)N2CCSC2C(=O)O)cc1 (stereo not drawn) | 0% | 11 | 2% | 0.7%
31 | Cc1nc(N2CCN(C(=O)CCC(=O)O)CC2)c2c(C)c(C)sc2n1 | -3% | 0 | 1% | -1.2%
32 | Cc1cccc(NC(=O)CNC(=O)c2cccc(S(=O)(=O)NCc3cccs3)c2)c1C | · | · | -26% | -2.2%
33 | CC(COc1ccccc1)N(CCCl)Cc1ccccc1 (stereo not drawn) | -4% | 0&11 | 15% | -3.6%
34 | Cc1ccnn1CCC(=O)O | 5% | 4 | 13% | -1.8%
35 | O=C(CC(=O)N/N=C/c1cccs1)NCc1ccccc1 | -2% | -1 | -21% | -3.1%
36 | CCCCc1nc2sc3c(=O)n(N)cnc3c2c2c1CCC2 | 0% | 3 | 12% | 0.0%
37 | CCCCCN1CN(S(=O)(=O)c2cccs2)c2nc3ccccc3nc21 | -10% | -4 | -4% | -3.2%
38 | CC(C)CNC(=O)COC(=O)c1cncc(Br)c1 | -1% | 9 | 23% | ?
39 | O=[N+]([O-])c1ccc(CN2CCN(c3ccc4ccccc4n3)CC2)cc1 | -7% | -5 | -3% | 3.0%
40 | O=C(c1cccc(NS(=O)(=O)c2ccc(F)cc2)c1)N1CCN(c2ccccc2)CC1 | · | · | 11% | 2.7%

Later entries:
# | molecule | miR-21 FLuc | GLA inh pH 4.5 | Rango dissoc inh | Rango complex inh
41 | O=C1CC(c2ccc(F)cc2)CC2=C1C(c1ccc([N+](=O)[O-])o1)Nc1ccccc1N2 (stereo not drawn) | 11% | -2 | 18% | 2.1%
42 | CCCOc1cccc(C(=O)Nc2ccc(CN3CCOCC3)cc2)c1 | 10% | · | 0% | 5.0%
43 | COC(=O)c1ccc(CO/N=C/c2ccc(OC)cc2OC)cc1 | -1% | · | 8% | 1.1%
44 | Cc1cccn2c(=O)c3cc(C#N)c(=NC(=O)c4cccnc4)n(CC4CCCO4)c3nc12 (stereo not drawn) | · | · | ? | ?
45 | O=[N+]([O-])c1ccc(Nc2cccc(F)c2)nc1 | -7% | 5 | ? | ?
46 | Cc1cc(C)cc(OC(C)C(=O)Nc2ccc(S(=O)(=O)Nc3cc(C)nc(C)n3)cc2)c1 (stereo not drawn) | 2% | · | ? | -1.6%
47 | CCn1nccc1C(=O)Nc1cc(Cl)cc(Cl)c1 | 1% | -7 | -13% | -2.0%
48 | CC(=O)C[C@H](O)CC(=O)[C@H]1OC(=O)[C@H](C)C/C=C\Cc2ccccc21 | · | · | 12% | -3.9%
49 | CC(=O)N1c2ccc(S(=O)(=O)N3CCCCC3)cc2CC1C (stereo not drawn) | -8% | · | -10% | -1.8%
50 | CCN(CC)c1nc(N)n(CCSC(=S)N(C)C)c(=O)n1 | -2% | 0 | 0% | -3.4%
51 | O=C1c2ccccc2C(O)(Cc2ccccc2)N1C1CCCCC1 (stereo not drawn) | -13% | 11 | -19% | -1.7%
52 | Cc1ccc(S(=O)(=O)NCCC(=O)NC2CCN(Cc3ccccc3)CC2)cc1 | · | · | 0% | -4.3%
53 | CCn1c(=O)cc(OCC(=O)NC2CC2)c2ccccc21 | 0% | · | -10% | 4.5%
54 | O=C(NCc1ccco1)c1ccc(Cn2c(=S)[nH]c3ccccc3c2=O)cc1 | -6% | -1 | 5% | -0.3%
55 | COC(=O)c1cc(NS(=O)(=O)c2ccc(Cl)c(N3C(=O)c4ccc(C(=O)O)cc4C3=O)c2)cc(C(=O)OC)c1 | 2% | -22 | 27% | 0.5%
56 | COc1ccc(N(CC(=O)N2CCN(C)CC2)S(C)(=O)=O)cc1OC | -3% | 0 | 0% | 2.3%
57 | O=C(/C=C\Nc1ccc(Br)cc1)c1cccnc1 | -38% | -3 | ? | ?
58 | COc1cc(OC)c2c(C)cc(=O)oc2c1C(CCN1CCOCC1)c1ccc2c(c1)OCO2 (stereo not drawn) | 8% | 0 | 12% | 0.0%
59 | CC(=O)c1ccc(NC(=S)NN2C(C)CCCC2C)cc1 (stereo not drawn) | 1% | 4 | 20% | -0.3%
60 | CCOc1ccccc1CNS(=O)(=O)c1ccc(-c2cnc(C3CC3)o2)cc1 | 27%&27% | · | 1% | -1.0%

Further results follow.
# | molecule | miR-21 FLuc | GLA inh pH 4.5 | Rango dissoc inh | Rango complex inh
61 | CC1CN(c2ccc(NC(=S)NNCCC#N)cc2)CC(C)O1 (stereo not drawn) | -1% | -16 | 16% | 1.5%
62 | CCN(CC)S(=O)(=O)c1ccc(OC)c(NC(=O)C2CC(=O)N(c3ccc4c(c3)OCCO4)C2)c1 (stereo not drawn) | -2% | · | 7% | 0.3%
63 | CCC(Oc1ccccc1)C(=O)Nc1nnc(S(=O)(=O)N2CCCC2)s1 (stereo not drawn) | 3%&-37% | · | -3% | 3.5%
64 | C/C(=N\NC(=O)c1ccc(Cl)cc1)c1cccnc1 | -37% | · | -13% | 5.3%
65 | CC(=O)NS(=O)(=O)c1ccc(NC(=O)C(C)NS(=O)(=O)/C=C/c2ccccc2)cc1 (stereo not drawn) | · | · | 29% | -0.4%
66 | CC(=O)c1nn(-c2ccccc2)cc1C(=O)c1cccc(Br)c1 | -8% | 2 | 18% | -2.6%
67 | Cc1ccc(S(=O)(=O)N2CCN(C(=O)CSc3ncc(C(F)(F)F)cc3Cl)CC2)cc1 | 0% | -9 | -3% | -1.8%
68 | Cc1cc(=O)oc2cc(OCC(=O)NC(Cc3c[nH]c4ccc(O)cc34)C(=O)O)c(Cl)cc12 (stereo not drawn) | 2% | · | -7% | 0.1%
69 | CCOc1ccc(NC(=O)Nc2cc(C(C)C)ccc2C)cc1 | -2% | 2 | · | ·
70 | COc1cc(OC)c2cc(C(=O)N[C@H](C(=O)N3CCC[C@H]3C(=O)O)C(C)C)n(C)c2c1 | -4% | · | -6% | 1.3%
71 | CN(C)c1ccc(C(O)c2cc3ccccc3s2)cc1 (stereo not drawn) | · | · | 5% | -1.4%
72 | CCOc1ccc(OCCC(=O)N2CCN(S(=O)(=O)c3cccc(F)c3)CC2)cc1 | · | · | -20% | 6.4%
73 | COc1ccc(-n2ncc3c2CC(C)(C)CC3NC(=O)CSc2ccccn2)cc1 (stereo not drawn) | 12% | · | 0% | -7.8%
74 | COc1ccc(OCC(O)CNC(=O)/C=C/c2cccc([N+](=O)[O-])c2)cc1 (stereo not drawn) | 2% | -2 | 36% | 1.7%
75 | O=C1CCCN1CCC(=O)N1CCCC(Nc2ccc(F)cc2)C1 (stereo not drawn) | 0% | · | 7% | 0.1%
76 | COc1ccc(C(NC(N)=O)c2ccccc2)cc1 (stereo not drawn) | -6% | 1 | -9% | 2.5%
77 | O=C(O)CC(NCc1ccco1)C(=O)OCC1CCCO1 (stereo not drawn) | 0% | -7 | 2% | -2.4%
78 | COC(=O)c1ccc(SCc2cnc(Cl)s2)cc1 | -24% | -1 | 0% | -14%
79 | CCOc1ccccc1CNC(=O)c1cn(C)c(=O)c2c1c1ccccc1n2C | -2% | 13 | 0% | ?
80 | Cc1cccc(N2C(=O)CN(Cc3ccccc3)C2=S)c1 | -2% | · | 4% | 2.7%

Later entries.
# | molecule | miR-21 FLuc | GLA inh pH 4.5 | Rango dissoc inh | Rango complex inh
81 | O=C(Nc1cccnc1)c1c(F)cccc1F | -9% | -2 | -6% | 0.7%
82 | C=CCN1C(=O)c2ccc(C(=O)N3CCN(S(=O)(=O)c4ccc(C(C)C)cc4)CC3)cc2C1=O | · | · | -14% | -0.7%
83 | COc1ccc(-n2c(=O)c3ccccc3n(Cc3cccc(C)c3)c2=O)cc1OC | -3% | -10[21.1 µM] | 0% | 2.9%
84 | O=C(c1cc(COc2ccc(F)cc2F)on1)N1CCN(C2CCCC2)C(=O)C1 | -4% | · | -10% | -1.0%
85 | C/C(CC(=O)Nc1cccc(Cl)c1Cl)=N\NC(=O)C(=O)N1CCCC1 | -5% | · | 3% | -0.7%
86 | COc1ccc(-n2cnnc2SC(C)c2nc3sc(C)c(C)c3c(=O)[nH]2)cc1 (stereo not drawn) | -2% | 2 | · | ·

Some entries already given, reduced to Rango complex inh.
# | canonical_smiles | Rango complex inh
82 | C=CCN1C(=O)c2ccc(C(=O)N3CCN(S(=O)(=O)c4ccc(C(C)C)cc4)CC3)cc2C1=O | -0.7%
85 | C/C(CC(=O)Nc1cccc(Cl)c1Cl)=N\NC(=O)C(=O)N1CCCC1 | -0.7%
83 | COc1ccc(-n2c(=O)c3ccccc3n(Cc3cccc(C)c3)c2=O)cc1OC | 2.9%
81 | O=C(Nc1cccnc1)c1c(F)cccc1F | 0.7%

High-throughput results (PubChem BioAssay)

A portion of the library; count on the stated rates, not on these rows.
